VDR inhibitor: inhibitors of human vitamin D receptor; P11473; VDR-SRC2-3 peptide fluorescence polarization, 2 h; Potency, µM, for the others: max response, negative = inhibition, hits mostly inhibitors; 0.93% of 400,000 active; active means well fitted inhibition curve with a large enough effect; inconclusive means small, poorly fitted or top-dose-only effect, or another doubt; inactive means no such curve, though single readings can be large or run the other way; further: series mostly up to about 120 µM
Target sequence (P11473 whole entry, looked up): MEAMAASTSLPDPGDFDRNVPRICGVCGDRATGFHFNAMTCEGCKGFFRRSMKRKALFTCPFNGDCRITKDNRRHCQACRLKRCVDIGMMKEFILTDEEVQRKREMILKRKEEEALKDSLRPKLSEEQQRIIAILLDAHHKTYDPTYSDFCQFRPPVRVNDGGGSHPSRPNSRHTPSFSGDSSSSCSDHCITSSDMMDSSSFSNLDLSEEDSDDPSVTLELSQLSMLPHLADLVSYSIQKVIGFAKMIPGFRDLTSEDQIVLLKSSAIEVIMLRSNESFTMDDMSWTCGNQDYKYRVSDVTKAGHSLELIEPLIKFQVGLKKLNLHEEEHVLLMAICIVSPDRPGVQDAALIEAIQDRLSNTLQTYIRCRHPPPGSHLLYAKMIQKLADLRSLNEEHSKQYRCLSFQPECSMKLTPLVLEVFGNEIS
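The screen uses fluorescence polarization to detect compounds that interfere with recruitment of the SRC2-3 coactivator peptide to VDR; plates are read after 2 h at room temperature.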
Active calls of the source: *; u = inconclusive; & = joins results of further samples; [ ] = remark or other dose. On the % scale 0 is the no-effect control and ±100 the full control effect; potency means the concentration at half of the fitted maximal effect.

VDR inhibitor	compound
-7%	COc1ccc(CC(=O)Nn2c(-c3ccccc3)nc3ccccc3c2=O)cc1
-3%	CC(=O)Nc1ccc2sc(C)nc2c1
-1%	COC(=O)C1=C(C(=O)OC)[C@@H]2N(C)c3ccccc3[C@@]23C[C@@H](CO)N(C(=O)c2cccs2)C3=N1
-7%	COc1ccc(-c2noc(CSc3nc4ccccc4c(=O)n3-c3ccc(C)cc3)n2)cc1
u	COc1ccccc1OCCCC(=O)NC(C)c1ccccc1 (stereo not given)
-5%	CCCn1cnc2cc(NCc3ccccc3OCC)ccc21
-1%	COc1ccccc1N1CCN(C(=O)COc2cccc(C)c2C)CC1
-21%	Cc1cccc(OCC(=O)N2CCN(c3nnc(-c4ccccc4)c4ccccc34)CC2)c1
1%	Cc1ccc(C)c(Nc2nc3nonc3nc2N2CCOCC2)c1
7%	O=C(CN1CCN(C/C=C/c2ccccc2)CC1)NC(=O)NC1CCCCC1
6%	COCCCN1C(=O)c2oc3ccccc3c(=O)c2C12C(=O)N(C)c1ccccc12 (stereo not given)
-21%	Cc1ccc(/C=C2\SC(=S)N(CCCC(=O)Nc3cc(C)on3)C2=O)cc1
10%	Cc1ccc(CSc2nc3cccnc3n2Cc2ccc(C(=O)NCc3ccco3)cc2)cc1
1%	COC(=O)CNC(=O)CCC(=O)N1CCN(C(c2ccccc2)c2ccccc2)CC1
-4%	COc1ccc(CN2CCNC(=O)C2CC(=O)NCCCn2cccn2)c(OC)c1 (stereo not given)
0%	COc1ccc(NC(=O)c2c(C)oc3ccc(O)c(CN4CCOCC4)c23)cc1
6%	Cc1cccc(N2CCN(S(=O)(=O)c3ccc4c(c3)CCN4C(=O)CCC(=O)O)CC2)c1C
6%	O=C(CSc1ccc2ccccc2c1)Nc1ccncc1
-7%	COc1ccc(-c2nnc(-c3ccccc3)o2)cc1OC
-13%	CC1CCCN(C(=O)CSc2nnc(-c3cccs3)o2)C1 (stereo not given)
13%	c1ccc2c(c1)ncn2-c1ncnc2sc3c(c12)CCCC3
-11%	Cc1ccc(-c2cc(-c3n[nH]c(=S)o3)c3ccccc3n2)cc1
15%	CCCOCC1CC2(CC(C)(c3csc(N)n3)OC2=O)C(=O)O1 (stereo not given)
18%	O=C(c1cccs1)N(Cc1ccco1)c1nc(-c2ccc(F)cc2)cs1

3 entries already listed, ordered by their value in VDR inhibitor, falling.
VDR inhibitor	compound
18%	O=C(c1cccs1)N(Cc1ccco1)c1nc(-c2ccc(F)cc2)cs1
6%	Cc1cccc(N2CCN(S(=O)(=O)c3ccc4c(c3)CCN4C(=O)CCC(=O)O)CC2)c1C
-11%	Cc1ccc(-c2cc(-c3n[nH]c(=S)o3)c3ccccc3n2)cc1

(cont.)
VDR inhibitor	compound
0%	Cc1cc(=O)[nH]c(/N=C(\N)Nc2ccc3c(c2)OCCO3)n1
8%	COc1ccc(CCNC(=S)NCCc2ccc(OC)c(OC)c2)cc1OC
3%	O=C(NCc1ccccc1F)C1CCCN(S(=O)(=O)N2CCOCC2)C1 (stereo not given)
-19%	O=C(c1cccs1)N1CCN(C(=O)c2cn(-c3ccccc3)nc2-c2ccccc2)CC1
11%	O=C(NC1CCCCC1)c1ccc2c(c1)N(Cc1cccc(Cl)c1)C(=O)c1ccccc1S2(=O)=O
14%	COc1ccc(NC(=S)N(CCN2CCOCC2)Cc2ccccc2F)cc1
-14%	COc1cc2c(cc1OC)C1=C(C#N)CCC(=NC(=O)c3ccc(Cl)cc3)N1CC2
7%	COc1ccccc1C(=O)n1nc(-c2cccnc2)nc1N
1%	CC(C)NC(=O)NS(=O)(=O)c1cnccc1N1CCCCC1
-8%	O=c1oc2ccccc2c(N2CCCCC2)c1CN1CCCCC1
-4%	CS(=O)(=O)N1CCN(C(=O)c2cc(-c3cccs3)nc3ccccc23)CC1
-8%	O=C(CCC(=O)c1cccs1)OCc1nc2ccccc2s1
-9%	O=C(NCCc1ccco1)c1nn(Cc2ccccc2)c(=O)c2ccccc12
-14%	CCOC(=O)C1(Cc2ccc(OC)cc2)CCN(C(=O)CN2CCN(CC)CC2)CC1
18%	O=C(c1ccccc1Br)N1CCN(c2ccccc2)CC1
6%	CCOc1cc(N2CCOCC2)c(OCC)cc1NC(=O)CN1CCc2ccccc2C1
-9%	O=C1/C(=C/c2cccs2)Cc2ccccc21
-6%	O=C(Nc1cccc(Cl)c1)N1CCCCCC1
-12%	COc1ccccc1C(=O)N1CCN(S(=O)(=O)c2ccccc2)CC1
7%	O=S(=O)(Nc1cccc(Oc2ccc(Cl)cc2)n1)c1ccc(F)cc1
-19%	Cc1cnc(C(=O)NC(Cc2ccccc2)c2ccccc2)cn1 (stereo not given)
11%	COCCNC(=O)CSc1nc(-c2ccccc2C)nc2c1c(=O)n(C)c(=O)n2C
79µM*	CCc1ccc2oc(-c3ccc(OC)cc3)cc(=Nc3cccc(C(=O)O)c3)c2c1
6%	COc1cc2c(C(=O)O)c(C)n(CC(C)C)c2c2ccccc12
2%	COc1ccc(OC)c(NC(=O)CSc2nnc(-c3ccncc3)s2)c1
-5%	O=C(Nc1ccccc1)c1ccc2ccccc2n1
7%	O=C(CCN1CCN(c2ccccc2)CC1)NNC(=O)Cc1ccccc1Cl
-2%	Cc1nn(-c2ccccc2)nc1-c1nnc(-c2ccc(C(F)(F)F)cc2)o1
-16%	COc1ccc(OC(=O)/C=C/c2ccc([N+](=O)[O-])cc2)cc1
-3%	CCN(CC)c1ccc(CNC23CN4CN(CN(C4)C2)C3)cc1
-17%	Cc1cc(NC(=O)CN2CCN(C/C=C/c3ccccc3)CC2)c([N+](=O)[O-])cc1C
-16%	Cc1noc(C)c1C(=O)OCC(=O)NC(=O)NC12CC3CC(CC(C3)C1)C2
-4%	CS(=O)(=O)N1CCc2cc(C(=O)N3CCOCC3)ccc21
-2%	CCOC(=O)c1nn(-c2ccc3c(c2)OCO3)cc1O
-11%	O=C(NC1CCCCC1)c1cc(-c2ccccn2)nc2ccccc12
-2%	CCOCCCNC(=O)C(NC(=O)c1ccccc1O)c1ccccc1 (stereo not given)
-8%	O=C(CSc1nnc(COc2ccccc2)o1)N1CCCC1
1%	O=C(CSc1nc2cc([N+](=O)[O-])ccc2n1-c1ccccc1)NCc1ccc2c(c1)OCO2
7%	C/C(=N\Nc1ccc(C(=O)O)cc1)c1ccc(S(=O)(=O)NCc2ccco2)cc1
-3%	COc1ccc(CN(C(=O)CNC(=O)c2ccco2)C(C(=O)NCC2CCCO2)c2ccccc2)cc1 (stereo not given)
3%	O=C(NCc1ccc(Cl)cc1)Nc1ccc(F)cc1
-6%	NC(=O)Nc1ccc(C(=O)OCC(=O)Nc2cccc(S(=O)(=O)NC3=NCCC3)c2)cc1
1%	CCOC(=O)N/N=C(/C)c1ccc(N2C(=O)C3CCCCC3C2=O)cc1 (stereo not given)
-10%	COc1cccc(-c2ccnc3c(-c4ccccc4)c(C)nn23)c1
4%	Cc1onc(-c2ccccc2Cl)c1C(=O)N1CCN(C(=O)c2ccco2)CC1
-6%	CC1CC(=O)Nc2ccccc2N1C(=O)CN1C(=O)C(=O)N(C)C1=O (stereo not given)
-6%	COc1cc(OC)cc(-c2nn[nH]n2)c1
-1%	O=C(CCS(=O)(=O)c1ccc(F)cc1)Nc1nnc(-c2ccco2)o1
-1%	CSc1ccc(S(=O)(=O)N2CCC(C(=O)N3CCc4ccccc4C3)CC2)cc1
-13%	Cc1ccc(-n2c(=O)c3ccc(C(=O)NCc4ccco4)cc3n(Cc3cccc(Cl)c3)c2=O)cc1
16%	COc1ccc(-c2ccc(SCC(=O)NC3CCCCC3)nn2)cc1
-2%	CC(C)c1ccc(C(=O)Nc2cccc3cccnc23)cc1
-11%	O=C(NCCN1CCOCC1)c1cc(-c2ccc(Cl)cc2Cl)on1
-10%	CC1CN(CC(O)COc2ccc(C#N)cc2)CCN1CC(O)COc1ccc(C#N)cc1 (stereo not given)
-9%	CCCc1cc(=O)[nH]c(SCCOC(=O)c2ccccc2)n1
78%[activator]	Nc1c(C(=O)Nc2cccc(F)c2)nnn1-c1ccc2c(c1)OCCO2

Further results follow:
VDR inhibitor	compound
-10%&-1%	COc1ccc(CCCc2nnc(SCC(=O)Nc3cccc(C)c3)o2)cc1
u	CCC(C)NC(=O)CCn1c(-c2ccccc2)cc(C(C)=O)c1C (stereo not given)
-16%	C=CC[C@@H](CC(=O)N[C@H](CO)Cc1ccccc1)C(=O)N[C@H](COC(=O)[C@H](CC=C)CC(=O)OC(C)(C)C)Cc1c[nH]c2ccccc12
u	Cn1cc(P(=O)(N2CCOCC2)N2CCOCC2)cc1P(=S)(N1CCOCC1)N1CCOCC1
20%	Cn1c(N)c(C(=O)/C=C/c2ccccc2)c(=O)[nH]c1=O
12%	Cc1ccc(CSc2nnc3[nH]c(=O)cc(C)n23)cc1
23%	FC(F)(F)C(Oc1nc(Nc2ccc(Cl)cc2)nc(N2CCOCC2)n1)C(F)(F)F
-3%	CCOC(=O)N1CCc2c(sc3c2c(=O)n(-c2ccc(CC)cc2)c(=O)n3Cc2cccc(OC)c2)C1
4%	Cc1cc(C(=O)OC2CCOC2=O)c2ccccc2n1 (stereo not given)
-2%	N#CC1=C(N)Oc2cc(N)ccc2C1c1ccc(Cl)cc1 (stereo not given)
8%	Cc1ccc(S(=O)(=O)N(C)CC(=O)Nc2nnc(CC(C)C)s2)cc1
50µM*	O=C(c1ccc(F)cc1)C(CN1CCOCC1)c1ccccc1 (stereo not given)
5%	CCCCCCN=CC1=C(O)C(C(=O)OC)C(C)(C)CC1=O (stereo not given)
-2%	CCOC(=O)c1cccc(NC(=O)CC2C(=O)N(c3ccc(F)cc3)C(=O)N2C(C)C)c1 (stereo not given)
-5%	COC(=O)c1c(C)[nH]c(C(=O)/C=C/c2ccccc2Cl)c1C
-1%	Cc1ccc(C(=O)OCC(=O)c2c[nH]c3ccccc23)cc1S(=O)(=O)N1CCCCC1
8%	COc1cccc(CNC(=O)C2CCN(c3cnccn3)CC2)c1
1%	O=C(OCC(F)(F)F)[C@H](O)[C@@H](O)C(=O)OCC(F)(F)F
-13%	CC(C)NC(=O)CSc1nnc(-c2ccncc2)n1-c1ccccc1
9%	CCCNC(=O)c1ccc(COc2cccc3ccccc23)o1
-20%	NC(=O)c1nsc(C(=O)N(Cc2ccccc2Cl)C(C(=O)NCC2CCCO2)c2ccc(O)cc2)c1N (stereo not given)
-2%	CCOCCCN(C(=O)CCC(=O)Nc1cc(C)on1)C(C(=O)NC(C)(C)CC)c1cccc(OC)c1OC (stereo not given)
4%	CN1CCN(S(=O)(=O)c2ccc(N3CCN(c4ccccc4Cl)CC3)nc2)CC1
-20%	O=C(O)c1ccccc1N=Cc1c(O)n(-c2nccs2)c(=O)c2ccccc12
-13%	CC(C)C[C@H]1CN=C(Nc2ccccc2)N1CCc1cccc(F)c1
5%	COc1ccc(-c2noc(CCC(=O)N3CCN(c4cccc(C(F)(F)F)c4)CC3)n2)cc1
6%	O=C(CSCSCC(=O)Nc1ccc2c(c1)OCO2)Nc1ccc2c(c1)OCO2
9%	CC(=O)Nc1cccc(NC(=O)c2cc(C)on2)c1
-7%	Oc1c(C(c2ccccc2)N2CCN(Cc3ccccc3)CC2)sc2nc(-c3ccco3)nn12 (stereo not given)
-3%	COc1cc2c(c(OC)c1OC)CC(=O)N(C)CC2
28µM*	COc1ccc(NC(=O)c2cc(-c3ccco3)nc3ccccc23)cc1S(=O)(=O)N1CCOCC1
-10%	C=CC[C@H](CC(=O)NCCO)C(=O)N[C@@H](COC(=O)[C@H](CC=C)CC(=O)OC(C)(C)C)Cc1c[nH]c2ccccc12
15%	CCOc1ccc(S(=O)(=O)N2CCNC(=O)C2)cc1
7%	O=C(Nc1ccccc1C(F)(F)F)Nc1cccc2ccccc12
-6%	COc1ccccc1/C=C/C(=O)Nc1ccc(S(=O)(=O)Nc2cc(C)on2)cc1
-10%	Cc1nc(-c2coc3c(O)c(O)ccc3c2=O)cs1
5%	O=C1c2ccccc2C(=O)N1CCc1c[nH]c2ccccc12
-15%	O=C(CSc1nc2c(sc3ccccc32)c(=O)n1CCCN1CCOCC1)NC1CCCC1
6%	CCC(C)NC(=O)CN(c1cc(Cl)cc(Cl)c1)S(C)(=O)=O (stereo not given)
-2%	COc1cc(C#Cc2c(-c3ccccc3)n(C)c3ccccc23)cc(OC)c1
10%	Cc1ccc(S(=O)(=O)N2CCN(C(=O)COC(=O)C3CC3C)CC2)c(C)c1 (stereo not given)
-2%	COC(=O)C1C/C(=N\NS(=O)(=O)c2ccc(C)cc2)c2sccc2C1 (stereo not given)
0%	N=C1CCCN1CC(=O)c1ccc(Br)cc1
-14%	COCCCNC(=O)CCn1c(=O)c2ccccc2n(CC(=O)Nc2c(C)cc(C)cc2C)c1=O
0%	Nc1ccn(CC(=O)NCCNc2ccc([N+](=O)[O-])cn2)c(=O)n1

Structures shown so far with a furan ring, fused or not:
VDR inhibitor	compound
10%	Cc1ccc(CSc2nc3cccnc3n2Cc2ccc(C(=O)NCc3ccco3)cc2)cc1
0%	COc1ccc(NC(=O)c2c(C)oc3ccc(O)c(CN4CCOCC4)c23)cc1
18%	O=C(c1cccs1)N(Cc1ccco1)c1nc(-c2ccc(F)cc2)cs1
-9%	O=C(NCCc1ccco1)c1nn(Cc2ccccc2)c(=O)c2ccccc12
7%	C/C(=N\Nc1ccc(C(=O)O)cc1)c1ccc(S(=O)(=O)NCc2ccco2)cc1
-3%	COc1ccc(CN(C(=O)CNC(=O)c2ccco2)C(C(=O)NCC2CCCO2)c2ccccc2)cc1 (stereo not given)
4%	Cc1onc(-c2ccccc2Cl)c1C(=O)N1CCN(C(=O)c2ccco2)CC1
-1%	O=C(CCS(=O)(=O)c1ccc(F)cc1)Nc1nnc(-c2ccco2)o1
-13%	Cc1ccc(-n2c(=O)c3ccc(C(=O)NCc4ccco4)cc3n(Cc3cccc(Cl)c3)c2=O)cc1
9%	CCCNC(=O)c1ccc(COc2cccc3ccccc23)o1
-7%	Oc1c(C(c2ccccc2)N2CCN(Cc3ccccc3)CC2)sc2nc(-c3ccco3)nn12 (stereo not given)
28µM*	COc1ccc(NC(=O)c2cc(-c3ccco3)nc3ccccc23)cc1S(=O)(=O)N1CCOCC1

The list is partial. The share of hits here may be higher or lower than overall.
